Assay outcomes: PubChem, ICCB-Longwood Screening Facility, Harvard Medical School
MenB inh – M. tuberculosis MenB inhibitors, primary screen, biochemical, absorbance; hit rate 0.43% among 100,000; inhibition, %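 (about 12 µg/mL by stock and volumes)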; 1,4-dihydroxy-2-naphthoyl-CoA synthase (Mycobacterium tuberculosis (strain ATCC 25618 / …; MenB enzyme assay, absorbance read-out; some hits fall short of the stated cut;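 active means mean of two replicates above 30%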;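 further: 0% = no compound and 100% = wells with inactive enzyme; the first replicate is given; strong numbers were not always called active; inactives centre near -10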
PV pol inh – poliovirus RdRp elongation inhibitors, primary screen, biochemical, fluorescence polarization, total intensity; Genome polyprotein (Poliovirus type 1 (strain Mahoney)), P03300; poliovirus polymerase elongation; hits give low values; % elongation, % (compound at 16.7 µg/mL); hit rate 0.66% among 150,000; in the data active means % elongation below about 90%; further: some results filed as inactive read as strong as hits
Target sequence (P03300 1749-2209 limits assumed): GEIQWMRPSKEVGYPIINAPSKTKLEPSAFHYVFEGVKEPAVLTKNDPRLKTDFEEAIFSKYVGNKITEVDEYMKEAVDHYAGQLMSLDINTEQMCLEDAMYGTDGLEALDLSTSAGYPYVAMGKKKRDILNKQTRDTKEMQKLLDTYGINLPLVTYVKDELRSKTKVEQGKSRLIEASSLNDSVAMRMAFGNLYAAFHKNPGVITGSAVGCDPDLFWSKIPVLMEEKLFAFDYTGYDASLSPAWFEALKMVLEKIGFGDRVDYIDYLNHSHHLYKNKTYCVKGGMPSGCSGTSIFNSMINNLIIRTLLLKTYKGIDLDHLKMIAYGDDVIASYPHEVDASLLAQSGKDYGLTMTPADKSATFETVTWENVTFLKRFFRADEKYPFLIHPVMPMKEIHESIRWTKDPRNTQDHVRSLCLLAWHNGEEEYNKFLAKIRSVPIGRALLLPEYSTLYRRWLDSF
Mtb MbtI inh – MbtI salicylate synthase inhibitors, primary screen, biochemical, fluorescence intensity | P9WFX0 | purified MbtI enzyme, fluorescence intensity read-out | inhibition, %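 (about 17 µg/mL by stock and volumes)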 | hit rate 0.89% among 100,000;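 active means above 50% in both replicates, above 80% if mildly self-fluorescent; inactive means the rest, strongly fluorescent compounds included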;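 further: 0% = mean of negative and 100% = mean of positive controls; one replicate is shown; some compounds called inactive have numbers as strong as hits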
Target sequence (P9WFX0 whole entry, looked up): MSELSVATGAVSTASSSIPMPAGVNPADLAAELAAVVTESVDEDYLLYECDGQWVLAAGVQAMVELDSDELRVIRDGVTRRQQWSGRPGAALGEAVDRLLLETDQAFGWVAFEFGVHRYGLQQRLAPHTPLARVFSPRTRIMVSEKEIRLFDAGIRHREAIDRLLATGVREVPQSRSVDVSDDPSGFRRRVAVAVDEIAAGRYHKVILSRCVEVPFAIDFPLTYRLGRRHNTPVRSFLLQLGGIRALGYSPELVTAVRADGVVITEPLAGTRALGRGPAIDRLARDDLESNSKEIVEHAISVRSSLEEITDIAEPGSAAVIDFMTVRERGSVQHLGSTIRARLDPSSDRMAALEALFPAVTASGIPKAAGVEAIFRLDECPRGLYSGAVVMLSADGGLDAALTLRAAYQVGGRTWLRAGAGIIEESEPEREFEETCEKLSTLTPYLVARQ
PV pol inh intensity – second read-out of PV pol inh, no call of its own (marks repeat the call); % elongation; measured here: total intensity read-out; formula for this scale not given here;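 total fluorescence in place of polarization; lower means less elongation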
Numbers without * were called inactive; i = inactive; nt = no result given.

SMILES	MenB inh	PV pol inh	PV pol inh intensity	Mtb MbtI inh
COC(=O)c1sccc1S(=O)(=O)NC1CCS(=O)(=O)C1 (stereo not given)	-23	106	104	-1
CC1=C(C(=O)OCc2ccccc2)OC(N)=C(C#N)C1c1ccc(F)cc1 (stereo not given)	-12	106	110	nt
O=C1c2ccccc2C(=O)N1n1c(=O)[nH]c2ccccc2c1=O	-57	100	101	-15
Cc1cc(CNC(C)c2cc3ccccc3o2)c(C)n1-c1cccc(S(=O)(=O)N2CCOCC2)c1 (stereo not given)	-17	102	106	-14
O=C(COC(=O)c1ccc(N2C(=O)CCC2=O)cc1)Nc1cccc(Cl)c1	-10	104	112	nt
Nc1cc(=O)[nH]c(=S)n1-c1cccc(C(F)(F)F)c1	-13	102	101	2
NC(=O)COC(=O)C12CC3CC(CC(O)(C3)C1)C2	17	101	106	-7
Cc1ccccc1NC(=O)N(Cc1cccs1)C(=O)CC#N	-4	110	109	0
O=C(Cn1c(SCc2cccc(Cl)c2)nc2ccncc21)NCC1CCCO1 (stereo not given)	-13	106	104	6
CCOC1=NOC2C3CCC(C3)C12 (stereo not given)	-5	110	113	nt
CC(=O)Nc1ccc(NC(=O)CSc2nnc3ccccn23)cc1	-6	107	113	4
Cc1ccc(C(O)C(C)C)cc1 (stereo not given)	-25	102	101	2
COc1ccccc1Nc1n[nH]c(=S)n1C(=O)c1cccs1	-57	98	103	-2
COc1cc(NC(=O)C2CC(=O)NC3=C2C(=O)CCC3)cc(OC)c1 (stereo not given)	3	101	104	3
O=C(O)c1c(CNC2CCCC2)c2ccccc2n1Cc1ccccc1	3	106	115	108
O=C(O)/C(=C(/O)c1ccccc1)c1nc2ccccc2[nH]1	-5	99	97	5
COc1ccc(C(=O)N2CC(C)CC(C)C2)cc1 (stereo not given)	-5	100	103	-5
COC(=O)C1C2c3ccccc3OC1(C)N=c1s/c(=C\c3ccc(C)o3)c(=O)n12 (stereo not given)	-15	101	106	-14
CC(=O)Oc1ccc2c(=O)c(Oc3ccc(Cl)cc3)c(C)oc2c1	0	101	106	-177
COc1ccc(C)cc1NC(=O)c1ccc(S(C)(=O)=O)cc1	-14	102	100	-6
Cc1ccc(OCC(=O)N2CCCCC2)c(C)c1	-11	102	107	nt
COc1cccc(-n2ccnc2SCC(=O)NCc2ccc3c(c2)OCO3)c1	-5	99	105	2
O=c1cc(CSc2n[nH]c(=O)n2-c2cccnc2)c2ccc(O)cc2o1	-37	102	103	-6
O=C(Oc1ccc(Cl)cc1)c1ccc(=O)[nH]c1	-3	100	103	6
Cn1cnnc1SCc1ccc(C(=O)NN=C2C3CC4CC(C3)CC2C4)cc1	11	100	97	2
Cc1cc2c(cc1S(=O)(=O)N1CCCCC1C)OCC(=O)N2 (stereo not given)	-3	101	108	8
O=C(Cc1ccccc1)Nc1ccn(Cc2ccccc2)n1	-10	101	100	-25
O=C(C1CC(c2ccccc2F)=NO1)N1CCc2ccccc2C1 (stereo not given)	4	99	102	-7
O=C(O)c1ccc(N2CCCC2)cc1	-10	100	99	16
CC(NC(=O)Cc1ccc(Br)cc1)c1ccccc1 (stereo not given)	-1	107	108	nt

As a short view, part of the list above:
SMILES	MenB inh	PV pol inh	PV pol inh intensity	Mtb MbtI inh
COc1cc(NC(=O)C2CC(=O)NC3=C2C(=O)CCC3)cc(OC)c1 (stereo not given)	3	101	104	3
O=C(O)c1c(CNC2CCCC2)c2ccccc2n1Cc1ccccc1	3	106	115	108
O=C(O)/C(=C(/O)c1ccccc1)c1nc2ccccc2[nH]1	-5	99	97	5
COc1ccc(C(=O)N2CC(C)CC(C)C2)cc1 (stereo not given)	-5	100	103	-5
COC(=O)C1C2c3ccccc3OC1(C)N=c1s/c(=C\c3ccc(C)o3)c(=O)n12 (stereo not given)	-15	101	106	-14
CC(=O)Oc1ccc2c(=O)c(Oc3ccc(Cl)cc3)c(C)oc2c1	0	101	106	-177
COc1ccc(C)cc1NC(=O)c1ccc(S(C)(=O)=O)cc1	-14	102	100	-6
Cc1ccc(OCC(=O)N2CCCCC2)c(C)c1	-11	102	107	nt
COc1cccc(-n2ccnc2SCC(=O)NCc2ccc3c(c2)OCO3)c1	-5	99	105	2
O=c1cc(CSc2n[nH]c(=O)n2-c2cccnc2)c2ccc(O)cc2o1	-37	102	103	-6
O=C(Oc1ccc(Cl)cc1)c1ccc(=O)[nH]c1	-3	100	103	6
Cn1cnnc1SCc1ccc(C(=O)NN=C2C3CC4CC(C3)CC2C4)cc1	11	100	97	2
Cc1cc2c(cc1S(=O)(=O)N1CCCCC1C)OCC(=O)N2 (stereo not given)	-3	101	108	8
O=C(Cc1ccccc1)Nc1ccn(Cc2ccccc2)n1	-10	101	100	-25
O=C(C1CC(c2ccccc2F)=NO1)N1CCc2ccccc2C1 (stereo not given)	4	99	102	-7

(list continues)
SMILES	MenB inh	PV pol inh	PV pol inh intensity	Mtb MbtI inh
O=C(NC(c1ccc2c(c1)OCO2)c1ccc2cccnc2c1O)c1ccccc1 (stereo not given)	-63	115	120	nt
c1cc(-c2nnco2)ccn1	nt	106	107	-2
CC1=NC(C(F)(F)F)(C(F)(F)F)C2=C(CC(C)(C)CC2=O)N1C(C)c1ccccc1 (stereo not given)	-28	103	93	-3
CC(NCc1ccc(OC(F)F)cc1OC(F)F)c1ccc(-n2ccnc2)cc1 (stereo not given)	4	99	88	3
O=c1oc(-c2cccc3ncccc23)nn1Cc1ccccc1F	-37	102	99	-4
Cc1ccccc1C(=O)N1CCC(C(=O)N2CCc3ccccc32)CC1	-24	110	122	-9
Cc1cc(NNC(=O)c2cccc(C(F)(F)F)c2)nc2c1c(C)nn2C	9	102	97	25
FC(F)(F)c1cc(-c2ccc(Cl)cc2)nc(N2CCCCC2)n1	3	101	104	-6
O=C(Cn1nnc(-c2ccccc2)n1)N(c1ccccc1)c1ccc2ccccc2c1	-32	107	101	nt
CC1(C)CC(=O)c2cc3c(N)c(C(=O)Nc4ccccc4)sc3nc2C1	-17	102	106	3
CN1c2ccccc2N(C)C1c1ccc2c(c1)OCO2	-15	100	102	-7
COC(=O)CC(N)c1ccccc1Cl (stereo not given)	8	103	104	1
COc1ccc(-c2cc(C(F)(F)F)nc(NC(C)c3ccccc3)n2)cc1OC (stereo not given)	-3	101	104	-11
COc1ccc(C2=C(C)C(=NCCCN(C)Cc3ccccc3)NS2(=O)=O)cc1	-13	101	102	28
CC(NC(=O)COc1ccccc1O)C1CC2CCC1C2 (stereo not given)	-17	99	103	-12
CN1CCSC1=NCCSc1ccc(Cl)cc1	-3	102	104	38
O=C(c1ccccc1)N(Cc1ccc2c(c1)OCO2)Cc1nc2ccccc2c(=O)[nH]1	-39	107	103	0
O=C(O)c1ccc(Nc2nnc(-c3ccccc3)c(-c3ccccc3)n2)cc1O	2	103	126	nt
Cc1ccnc(NC(=O)CSC2=NC(=O)C(c3ccccc3)C(=O)N2)c1 (stereo not given)	-48	99	102	-45
Cc1nnsc1C(=O)Nc1ccc(F)cc1	-6	100	102	3
NC(=O)COc1ccc(Br)cc1CNCc1ccco1	-8	99	99	-6
Cc1csc2ncnc(N3CCN(C(=S)Nc4ccc(F)cc4F)CC3)c12	-20	108	99	-3
COc1cc(C#N)ccc1OC(=O)c1oc2ccccc2c1CSc1nc(C)cs1	-20	103	105	-3
Cc1ccc(S(=O)(=O)NC2CCC(C)CC2)cc1C (stereo not given)	-17	104	101	5
COc1cccc(OCC(=O)Nc2c(C(=O)Nc3ccccc3OC)oc3ccccc23)c1	-20	102	97	29
FC(F)(F)c1nnc2n1Nc1nc3ccccc3nc1S2	-68	91	164	4
NC(=O)CC1(C(F)(F)F)OCCO1	nt	103	100	-10
Cn1cc(C(=O)OCC(=O)N2CCCC2)c2ccccc21	6	102	106	2
O=C(Nc1ccc(S(=O)(=O)Nc2ccccn2)cc1)c1ccc(F)cc1	-33	102	104	-22
Cc1ccc2nc(SCc3c(C(=O)O)nnn3-c3nonc3N)[nH]c2c1	0	100	102	1
CC(C)Oc1ccc(C2CC(=O)N(Nc3ccccc3)C2=O)cc1 (stereo not given)	-17	106	101	-21
C(#CC(N1CCOCC1)N1CCOCC1)C1CC1	8	79	113	nt
Cn1ccnc1C(O)(CC(=O)O)C(F)(F)F (stereo not given)	-2	97	101	-10
Cn1cnnc1SCc1ccc(-c2csnn2)cc1	-3	103	103	1
CSc1ncccc1C(=O)OC1CCCCC1=O (stereo not given)	-10	98	94	-6
CC(C)CNC(=O)CC1Sc2ccc(C(F)(F)F)cc2NC1=O (stereo not given)	-20	104	102	-15
O=C(O)C1C2CCC(C2)C1C(=O)NCc1ccc2c(c1)OCO2 (stereo not given)	-7	102	104	-25
COC(=O)/C=C\c1cc(Br)ccc1C#N	-42	106	100	-10
O=C(OCC(=O)c1c[nH]c2ccccc12)c1ccc2c(c1)OCCO2	-9	103	120	10
O=C(COc1ncnc2c1cnn2-c1ccccc1)c1ccc(Cl)s1	-16	117	134	-9
OCc1nc2ccccc2n1CN1CCOCC1	-44	104	103	-4
O=C(CSc1nnc(C2COc3ccccc3O2)o1)Nc1ccc(F)cc1Cl (stereo not given)	-11	102	104	-2
Cn1nc(C(F)(F)F)cc1-c1ccc(S(N)(=O)=O)s1	7	101	100	-1
Cc1cc2c(cc(C(=O)N3CCC(C(=O)NC4CCCC4)CC3)n2Cc2c(F)cccc2Cl)o1	-23	102	101	3
CCOc1ccc(N2C(=O)/C(=C/c3ccc(F)cc3)N=C2SC(CC)C(=O)N2CCOCC2)cc1 (stereo not given)	-24	101	100	-3
O=C(CN1CCCC1)Nc1nc(-c2ccc3c(c2)CCN3C(=O)C2CC2)cs1	-16	102	100	-3
Cc1ncsc1CCOC(=O)c1ccccc1	nt	102	109	-15
CCCc1cnc2c(c1SCC(=O)NCc1ccc(F)cc1)c(=O)n(C)c(=O)n2C	-53	105	97	-9
CCC(C)NC(=O)/C(=C/c1ccc(F)cc1)c1cccs1 (stereo not given)	nt	101	95	6
N=c1c2c(-c3ccccc3)c(-c3ccccc3)n(Cc3ccco3)c2ncn1CCN1CCOCC1	-60	103	101	-11
CCn1c2c(c3cc(C4CCCCC4)ccc31)CCCC2=O	-25	98	103	-1
O=C(COC(=O)c1ccc(-c2ccccc2)cc1)Nc1ccc(F)cc1	nt	104	108	4
CCC(C)Nc1cc(C)c(C#N)c2nc3ccccc3n12 (stereo not given)	-37	108	110	i
COc1ccc(C2=CC(C3CC3)=C(C#N)C(=C(C#N)C#N)N2)cc1	-97	65	166	-48
Cc1nnc2ccc(Cl)nn12	13	100	103	118
CN(C(=O)CSc1c2c(nc3ccccc13)CCCC2)C1CCCCC1	-28	101	107	0
O=c1[nH]ccn(Cc2ccc(Cl)cc2)c1=O	-4	101	101	8
O=C(OC(C(=O)c1ccccc1)c1ccccc1)c1cccnc1Cl (stereo not given)	nt	104	106	-11
Cc1nnc(NC(=O)C2CCN(S(=O)(=O)/C=C/c3ccccc3)CC2)o1	-23	107	110	-7
CCc1cc(=O)oc2cc(C)cc(OCC(=O)c3ccc(F)cc3)c12	nt	101	104	4
The listing continues.
SMILES	MenB inh	PV pol inh	PV pol inh intensity	Mtb MbtI inh
CC(C)CCNC(=O)c1ccc(S(=O)(=O)C(F)F)cc1	17	100	109	9
O=C1CNC(=O)N1/N=C/c1ccc(Cl)cc1Cl	-20	106	106	nt
COc1cc(OC)nc(NC(=S)Nc2ccc(F)cc2)n1	-26	99	98	-5
COC(=O)C1=C(C)Nc2ncnn2C1c1ccncc1 (stereo not given)	5	100	97	13
Cc1ccsc1C(=O)N1CCCSC1=Nc1ccccc1	13	111	96	14
COC(=O)C1C(c2ccccc2)C(C(=O)N2CCN(C)CC2)C1c1ccccc1 (stereo not given)	-16	106	103	-16
COc1cc2c(cc1OC)C(COc1ccccc1OC)N(C(=O)c1ccc(Br)o1)CC2 (stereo not given)	-19	100	103	-1
Cc1ccc(Nc2nnc(SCC(=O)NC(C)C)s2)cc1	-1	102	94	12
CC(=O)Nc1ccc(S(=O)(=O)N(Cc2ccco2)S(=O)(=O)c2ccccc2F)cc1	5	97	98	84
CCOC(=O)CS(=O)(=O)Cc1nc(-c2ccc(OC)c(OC)c2)no1	-17	103	100	9
O=C(NC1CCCc2ccccc21)C1=Cc2cc(Cl)ccc2OC1 (stereo not given)	-16	104	104	-8
Cc1cc(N2CC(C)OC(C)C2)nc2ccccc12 (stereo not given)	-6	97	101	108
CSc1ccccc1NC(=O)COC(=O)CN1C(=O)CSc2ccccc21	5	103	107	-9
[O-]/[N+](=C/c1ccc(C(F)(F)F)cc1)c1ccccc1	1	101	100	0
COC(=O)CSc1nc2cc(Cl)ccc2c(=O)n1C1CCCC1	-17	110	112	-26
COc1cc(OC)nc(OC)n1	-29	101	104	2
CN(C)CC(C)(C)CNc1nc(-c2cccnc2)nc2ccccc12	-13	100	113	-2
COC(=O)c1cc(-c2ccc(C)cc2)no1	0	100	102	6
Cc1nc2ccc(NC(=O)CSc3nc4ccccc4[nH]3)cc2[nH]1	17	99	102	-2
O=C(NCc1n[nH]c(=O)c2ccccc12)Nc1ccccc1	-11	104	111	-3
Cc1cc(-c2csc(-c3cccs3)n2)c(C)n1C	-9	110	118	-95
O=C(NC1CCS(=O)(=O)C1)Sc1ccccc1 (stereo not given)	15	104	99	52*
c1coc(C2Nc3ccccc3C3OCCC23)c1 (stereo not given)	1	101	103	22
